# GALR2 ag = GALR2 (human) receptor agonism | O43603 | GALR2-expressing cells, agonist activation read-out | activation, %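 (tested at 5 µM)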 | hit rate 0.48% among 140,000 | AID 803;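 active = above mean plus 3 SD of all compounds, about 5% in these data, not always enough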;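 note: 0% = vehicle buffer wells and 100% = reference agonist at full effect; tested in CHO reporter cells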
# Target sequence (O43603 whole entry, looked up): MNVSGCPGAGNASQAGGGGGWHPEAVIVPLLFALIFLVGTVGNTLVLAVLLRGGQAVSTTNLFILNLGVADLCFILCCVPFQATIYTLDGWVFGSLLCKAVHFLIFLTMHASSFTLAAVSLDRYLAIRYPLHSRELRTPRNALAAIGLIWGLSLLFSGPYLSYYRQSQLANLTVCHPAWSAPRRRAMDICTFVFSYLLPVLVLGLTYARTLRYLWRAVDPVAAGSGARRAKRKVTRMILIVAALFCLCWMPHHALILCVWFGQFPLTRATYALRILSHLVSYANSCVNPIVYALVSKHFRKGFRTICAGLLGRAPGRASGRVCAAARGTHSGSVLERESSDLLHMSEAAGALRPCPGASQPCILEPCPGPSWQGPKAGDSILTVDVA
# RGS16-Gao HTS = RGS16-Galphao interaction regulator (human); hit rate 0.38% among 220,000; AID 1441; bead-based flow cytometry RGS16-Galphao binding, fluorescence; actives lie on both sides; O15492+P09471; binding response (% of control), % at 10 µM;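 active = below 25% or above 175%, edge rows of some plates excepted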;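 note: Galphao activated by GDP with aluminum fluoride before binding; 100% = wells without compound and 0% = beads without RGS; some results beyond the cut were filed as inactive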
# Target sequence (O15492 whole entry, looked up): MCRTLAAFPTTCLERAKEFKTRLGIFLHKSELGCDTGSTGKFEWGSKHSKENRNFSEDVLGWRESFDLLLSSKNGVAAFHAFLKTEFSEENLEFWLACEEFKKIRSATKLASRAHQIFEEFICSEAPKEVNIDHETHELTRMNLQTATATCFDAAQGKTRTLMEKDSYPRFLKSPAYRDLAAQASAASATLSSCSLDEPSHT
# Target sequence (P09471 whole entry, looked up): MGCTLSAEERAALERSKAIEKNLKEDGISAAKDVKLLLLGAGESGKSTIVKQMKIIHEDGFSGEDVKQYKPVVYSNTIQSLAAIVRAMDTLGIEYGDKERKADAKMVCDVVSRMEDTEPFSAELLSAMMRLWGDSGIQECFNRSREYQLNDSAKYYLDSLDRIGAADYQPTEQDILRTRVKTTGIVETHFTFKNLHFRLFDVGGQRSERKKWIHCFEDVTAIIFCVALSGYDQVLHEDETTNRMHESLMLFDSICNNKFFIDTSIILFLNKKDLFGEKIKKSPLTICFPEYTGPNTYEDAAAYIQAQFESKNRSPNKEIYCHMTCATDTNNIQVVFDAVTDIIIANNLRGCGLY
# INS promoter inh = TRM-6 insulin promoter activity inhibition | TRM-6 cells (human fetal islet line), insulin promoter-eGFP reporter, imaging; reporter expression induced with tamoxifen | inhibition, % at 2 µM | AID 1273 | hit rate 0.9% among 130,000;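 active = inhibition above the mean plus 3 SD, with well images judged a real hit on visual review, cut at about 60% in these data, passing the limit was not always enough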
# HSV augment = HSV replication enhancement; hit rate 0.005% among 220,000; HSV replication augmentation in cells, fold increase; maximum fold increase;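 active = peak rise of 1.5-fold or more in the series; tested in PC3 cells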;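 note: first round at 10 µM; read as green reporter fluorescence; hits show the peak of a series up to 25 µM; 1 = signal of infected wells without compound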
# PKD1 kinase inh = blocks activity of human protein kinase D1 | hit rate 0.056% among 200,000 | PKD1 kinase fluorescence polarization assay | inhibition, %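 (about 10 µM by stock and volumes)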;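 active = inhibition of 50% or more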;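 note: controls were vehicle for no effect and a reference inhibitor for full effect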
# INS promoter inh cell count = second read-out of INS promoter inh, no call of its own (marks repeat the call); normalized cell count, %; measured here: cell count, toxicity; reference of the scale not given here;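 cells exposed to compound for 48 h; stained nuclei by imaging scaled within each plate; lower means fewer cells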
# HSV augment primary fold = second read-out of HSV augment, no call of its own (marks repeat the call); fold increase; compound at 10 µM; measured here: primary screen fold increase 10 uM; tested in PC3 cells;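 GFP signal in the first replicate; 1 = infected wells without compound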
# * hit, by the source's call; i = inactive; / = no result given; & = joins results of further samples. Rows were taken by chance; about 1.3% have a hit in one of these screens.
SMILES,GALR2 ag,RGS16-Gao HTS,INS promoter inh,INS promoter inh cell count,HSV augment,HSV augment primary fold,PKD1 kinase inh
S=C(Nc1ccccc1Cl)N(CCN1CCCCC1)Cc1ccco1,0.2,106,-31,82,i,1.1,9
Cc1cc(NC(=O)CN2CCc3ccccc3C2)nc2c1c(=O)oc1ccccc12,/,96,/,/,/,/,7
O=C(Cn1cnc([N+](=O)[O-])c1)NCc1ccc(F)cc1,-1.9,91,/,/,/,/,-7
COc1ccc(OCCSc2nnc(C)n2-c2ccccc2)cc1,-1.4,98,50,123,i,0.75,-6
CC(C)N(CCNS(=O)(=O)c1ccc(Cl)cc1)C(C)C,-0.5,102,-1,85,i,0.86,6
O=c1cc(O)nc(SCc2ccccc2)n1-c1ccccc1,-1.4&-2.9,93&98,-29&12,59&64,i,0.93&0.95,5&9
O=C(NCc1ccccc1)C(=O)Nc1nccs1,/,107,27,72,i,0.99,-3
Cc1cccc(Nc2nc(N)nc(CN3CCN(c4ccc(F)cc4)CC3)n2)c1,-2.6,93,/,/,i,1,6
O=C(COc1ccc(C2SCCS2)cc1)NNC(=O)C(Cl)Cl,/,95,/,/,i,0.96,/
COCCN(C(=O)CSc1ncc(C(F)(F)F)cc1Cl)c1c(N)n(Cc2ccccc2)c(=O)[nH]c1=O,/,101,-27,170,i,0.97,-1
CC1(C)NC(=O)N(CC(=O)OCC(=O)Nc2cccc(S(N)(=O)=O)c2)C1=O,/,100,-41,135,i,0.93,-3
Cc1cc(C)cc(N2C(=O)CSC2c2cccs2)c1 (configuration not stated),-2.1,105,/,/,i,1,-1
Cc1ccc(-c2cc(C(=O)Nc3cnn(C45CC6CC(CC(C6)C4)C5)c3)no2)cc1,-1.2,114,-10,166,i,0.76,-3
O=C(O)CCCNS(=O)(=O)c1ccc2ccccc2c1,-1.2,100,8,125,i,0.84,-10
Cc1ccc(C(=O)NC(=S)Nc2ccc(N3CCOCC3)cc2)cc1C,/,95,-29,157,i,0.95,-3
Cc1occc1C(=O)Nc1nnc(-c2ccncc2)s1,-1.1,104,38,121,i,1.1,0
CCOc1ccc2[nH]cc(C(=O)N3CCN(C4CCCCC4)CC3)c(=O)c2c1,-2.2,/,44,77,i,1,-4
Clc1cncc(Cl)c1N/N=C/c1ccccc1,/,105,/,/,i,1.1,/
Cc1nn(-c2ccccc2)c(Cl)c1/C=N/N1CCN(c2ccccn2)CC1,/,99,-3,132,i,1.1,-2
Cc1cc(=O)[nH]c(SCC(=O)NCC2CCCO2)n1 (configuration not stated),/,99,/,/,i,0.86,/
O=C(NC(=S)Nc1ccc2oc(-c3ccncc3)nc2c1)c1ccccc1F,/,97,/,/,i,0.88,-4
N#CC1=C(N)Oc2n[nH]c(-c3ccccc3)c2C12C(=O)Nc1ccccc12 (configuration not stated),11*,104,-23,115,i,0.81,-4
O=C(N/N=C(/CC(=O)c1cccs1)C(F)(F)F)c1ccc(O)cc1,1.1,89,-81,96,i,0.84,-12
COc1ccccc1-n1cnnc1SCC(=O)Nc1cccnc1Cl,/,101,/,/,i,0.97,-3
Cc1n[nH]c(C)c1Sc1ccccc1N=Cc1cc([N+](=O)[O-])ccc1O,-0.5,102,10,127,i,0.88,-1
S=c1[nH]nc(Cc2ccccc2)n1-c1ccc(Cl)cc1,/,i,/,/,i,1,-3
Cc1cc(C)c(NC(=O)COc2nc3ccccc3nc2C)c(C)c1,-0.1,104,/,/,i,0.92,4
C1CC(CN2CCOCC2)CN(c2nc3nonc3nc2N2CCSCC2)C1 (configuration not stated),/,111,/,/,i,1.1,-3
COc1ccccc1/C=C/C=N/n1c(-c2ccccn2)n[nH]c1=S,/,100,/,/,i,0.83,/
CCNC(=O)CSc1nnc(-c2cc(-c3ccc(Cl)cc3)nc3ccccc23)o1,0.1,103,/,/,i,0.96,-3
C/C(=N\NC(=O)CC1(C)OCCO1)c1cccs1,-1.9,101,36,85,i,0.96,-2
CC(=O)Nc1ccc(S(=O)(=O)NCCc2ccc(S(N)(=O)=O)cc2)cc1,0.1,99,49,103,i,0.97,-11
CC(C)(C)c1cnnn1-c1ccc(C(=O)CCl)cc1,0.0,105,-10,108,i,0.85,-10
O=C(CSc1ncn[nH]1)Nc1ccc([N+](=O)[O-])cc1Br,-1.9,95,0,40,i,0.9,2
O=C(Nc1ccccc1)c1csc(-c2ccccc2)n1,/,95,/,/,i,1,-9
Cc1cccc(NC(=O)CSc2ncnc3c2oc2ccccc23)c1,-1.6,98,/,/,i,0.91,-7
C=CCNC(=S)Nc1c(N)n(C)c(=O)n(C)c1=O,/,103,/,/,i,0.92,/
CCOc1cc(CNc2ccc3c(c2)OCCO3)cc(Br)c1OCC,1.4,99,/,/,i,0.77,-16
O=C(CN(c1ccc(Cl)cc1)S(=O)(=O)c1ccccc1)N1CCN(c2ccccc2)CC1,-0.1,104,-48,169,i,0.91,3
COc1ccc(-c2nc(CN3CCN(c4cc(C)nc(C)c4)CC3)c(C)o2)c2ccccc12,/,102,-25,117,i,0.8,3
Cc1ccc(NC(=O)c2cccnc2C(=O)Nc2ccc(C)cc2)cc1,/,118,/,/,i,0.82,-3
CCOc1ccc(C(=O)Nc2ccc(Cc3ccncc3)cc2)cc1Br,/,101,-21,144,i,0.98,1
COc1ccc(C)cc1N(C)C(=O)c1coc(=O)c2ccccc12,0.1,102,-19,101,i,0.89,4
CC(C)C[C@@H]1NC(=O)N(CCN2CCOCC2)C1=O,-3.1,200,-3,78,i,0.96,0
O=C(Cc1ccc(S(=O)(=O)N2CCOCC2)s1)NCC1CCCCC1,-1.2,98,/,/,i,1,-3
CCOc1ccccc1N1CCN(C(=O)C(F)(F)F)CC1,-0.5,102,-4,84,i,0.98,-7
CC1CCC(N2CC(=O)N(Cc3ccc4c(c3)OCO4)C(c3ccc(F)cc3)C2=O)CC1 (configuration not stated),1.3,85,-32,100,i,1.1,-1
COc1cccc(CNS(=O)(=O)c2ccc3c(c2)CCN3C(=O)C2CC2)c1,/,96,/,/,i,1.1,9
COc1ccc(/C=C/C(=O)c2ccc(NC(=O)c3cccs3)cc2)cc1OC,-0.1,96,-61,86,i,0.87,-6
CCOC(=O)c1c2ccc(OCC(=O)NN)cc2n2ccccc12,/,112,18,194,i,1.2,-3
CCN(C(=O)c1cc2c(=O)[nH]c3ccc(C)cc3c2s1)c1ccc(OC)cc1,/,103,/,/,i,0.78,/
O=[N+]([O-])c1cc(C(F)(F)F)ccc1NCCCCNS(=O)(=O)c1ccc2ccccc2c1,-0.8,103,22,137,i,0.85,10
CCCCCCCC(=O)N/N=C(\C)c1ccc(N)cc1,/,105,/,/,i,1.1,0
Cn1c(N)c(-c2nc3cccnc3n2C)sc1=S,/,99,/,/,i,0.82,2
Cc1cccc(C)c1NC(=O)CN,/,95,/,/,i,1.1,/
O=C(NCCCN1CCOCC1)c1ccc(Br)cc1Br,/,97,11,73,i,1.2,-1
CCOC(=O)c1ccc2c(c1)n(CCCS(=O)(=O)[O-])c(/C=C/c1ccc(Cl)cc1)[n+]2CC,/,104,/,/,i,0.94,/
CC(C)CC(=O)N1CCC(O)(CS(=O)(=O)Cc2ccccc2)CC1,-2.4,103,23,106,i,0.96,-8
Cc1cc(C)cc(OCC(=O)Nc2ccccc2N2CCCCC2)c1,-3.1,101,58,54,i,1,2
COc1ccc(CNC(=O)Nc2ccc(C)cc2C)cc1,/,105,/,/,i,1.1,5
# The list continues:
SMILES,GALR2 ag,RGS16-Gao HTS,INS promoter inh,INS promoter inh cell count,HSV augment,HSV augment primary fold,PKD1 kinase inh
Cn1c(=O)[nH]c(=O)c2c1nc(CN1CCN(c3ccccc3F)CC1)n2CCCc1ccccc1,-1.0,98,-25,98,i,0.75,4
CN(Cc1nc2ccccc2c(=O)[nH]1)Cc1nc2ccsc2c(=O)[nH]1,/,101,-22,49,i,0.94,-4
COc1ccc(NC(=O)C(Cc2ccccc2)n2cccc2)cc1 (configuration not stated),/,99,/,/,i,1,/
Cc1ccc(S(=O)(=O)Nc2nc(C)c(NC(=O)OCCCl)s2)cc1,-0.8,135,-17,98,/,/,-5
Oc1ccc(-c2csc(Nc3cccnc3)n2)cc1,0.9,100,11,119,i,0.82,4
O=C(Cn1cncn1)N/N=C/c1cccc(Cl)c1,/,104,/,/,i,0.95,/
CCN(CC)S(=O)(=O)c1ccc(N2CCOCC2)c(NC(=O)COc2ccccc2)c1,/,104,/,/,i,0.93,1
CC(C)NC(=O)CC(=O)N/N=C\c1ccccc1C(=O)O,/,103,/,/,i,0.71,-7
CCOC(=O)c1c(C)[nH]c(C=O)c1Cc1cccc(Cl)c1,-1.0,108,36,116,i,0.87,4
c1ccc(-c2nc(N3CCCC3)nc3ccccc23)cc1,/,98,-18,95,i,1,5
O=C(NCCCO)NC(=S)c1cccc2ccccc12,/,99,/,/,i,1.1,-4
CCCc1nc2ccc(NC(=O)c3cccs3)cc2c(=O)n1Cc1ccc(Cl)cc1,0.7,102,21,154,i,0.85,-8
CCCCS(=O)(=O)CC(COc1ccccc1)OC(=O)c1ccccc1 (configuration not stated),-0.1,110,17,46,i,0.87,-3
CCC1CCCCN1CCNC(=O)c1[nH]c(C)c(C(C)=O)c1C (configuration not stated),-2.1,117,/,/,i,1.1,2
COc1cccc(CC(NC(C)=O)C(=O)NC2CCN(S(=O)(=O)c3ccc(C)cc3)CC2)c1OC (configuration not stated),/,102,-12,105,i,1,0
O=C1CC[C@@H](CN(Cc2ccccn2)Cc2nc(Cc3cccc(C(F)(F)F)c3)no2)N1,/,100,40,79,i,0.95,-2
Fc1cccc(CCN2C(=S)NC[C@@H]2CC2CCCCC2)c1,/,101,/,/,i,0.9,/
O=C(O)Cn1c(O)c(C=Nc2ccccc2)sc1=S,0.3&-1.1,94&113,43&47,137&98,i,0.96&1.3,-2&-7
O=C1SC(SCc2ccccc2)=N/C1=C\c1ccc(C(=O)O)cc1,/,152,/,/,i,0.97,-3
Cc1cc(C)c(OCCNC(=O)c2ccccc2Sc2ccccc2C#N)c(C)c1,-1.3,38,-43,65,i,0.92,-10
CCCC(=O)Nc1c(-c2ccccc2)c(=O)c(C)nn1-c1ccc(C)cc1,/,99,/,/,i,1.2,/
CCn1cc(S(=O)(=O)Nc2cc(F)ccc2C)cn1,/,98,/,/,i,1,0
Cc1ccc2c(c1C)NC(C(=O)O)C1CC=CC21 (configuration not stated),/,93,/,/,i,0.98,/
Cc1c(Cl)cccc1NC(=O)CCC(=O)NNC(=O)c1ccco1,-1.1,106,8,70,i,0.92,3
Cc1cc(C(=O)NNc2ccc(C(C)C)cc2)n(C(C)(C)C)n1,/,93,/,/,i,0.83,/
O=C(CN1C(=O)C2C3C=CC(C3)C2C1=O)N1CCc2ccccc2C1 (configuration not stated),-3.6,106,50,82,i,0.93,-8
CCOc1ccc(CC(=O)Nc2cccc(-c3ccc4nnc(C)n4n3)c2)cc1,/,104,/,/,i,0.88,3

# From PubChem
